High-throughput results deposited in PubChem by Fisher Drug Discovery Resource Center.
NPYLR7 agonist: activates Aedes aegypti NPYLR7 receptor | HEK293T NPYLR7/Galpha15, GCaMP6s calcium fluorescence | 270,000 compounds, 0.15% hits | activation, % at 10 µM | AID 1259423; in the data active means activation above about 40%;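 further: 0% = vehicle and 100% = reference agonist at the receptor; some compounds past the cut are filed as inactive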
NPYLR7 agonist max-min: also measured in NPYLR7 agonist; calls as there; activation, %; measured here: Max-Min RFU normalised activation; some inactives read as strong as hits;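 span of the calcium signal over five minutes; 0% = vehicle and 100% = native peptide agonist; compound fluorescence can raise it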
An asterisk follows results filed as active; & = joins results of further samples.

Structure	NPYLR7 agonist	NPYLR7 agonist max-min
COC(=O)C1=C(C)N=c2s/c(=C/c3ccc(Cl)c(Cl)c3)c(=O)n2C1c1ccccc1 (stereo not drawn)	1	0
CC(NS(=O)(=O)NCc1ccccc1)c1nc2c(s1)CCCC2 (stereo not drawn)	1	13
COc1cc(/C=C2\C(=O)N(C(c3ccccc3)c3ccccc3)C(=S)N2C)cc2c1OCO2	24	23
CCOc1ccc(S(=O)(=O)Nc2cccc(C)n2)cc1C(C)(C)C	4	10
CC(C)(C)OC(=O)N1CCc2[nH]c(=O)c(S(C)(=O)=O)cc2C1	13	12
Cc1ccc(C)c(Cc2c(C)nc(C)nc2N2CCN(C(=O)c3ccc4c(c3)OCO4)CC2)c1	2	8
O=C(O)CCn1ccc2c(nnc3ccnn32)c1=O	27	16
c1ccc(-c2csc(=NC3CCCCC3)n2N=C2CCCC2)cc1	-6	-7

Compound profiles (already shown). Order of screens: NPYLR7 agonist, NPYLR7 agonist max-min
COc1cc(/C=C2\C(=O)N(C(c3ccccc3)c3ccccc3)C(=S)N2C)cc2c1OCO2 across the screens: 24, 23
CC(C)(C)OC(=O)N1CCc2[nH]c(=O)c(S(C)(=O)=O)cc2C1 across the screens: 13, 12

Going on with the list:
Structure	NPYLR7 agonist	NPYLR7 agonist max-min
O=C(Cn1nc2c(c1NC(=O)CSc1ccncc1)CSC2)NCC1CCCO1 (stereo not drawn)	-4	-2
Cc1cccc(-n2nc3c(c2NC(=O)c2ccc(N4C(=O)CCC4=O)cc2)CSC3)c1	-2	-3
Cc1ccccc1Cn1cc(C(=O)NCCc2cccc(C(F)(F)F)c2)nn1	10	10
COc1ccc(C2c3ccsc3CCN2CC(=O)N2CCN(C(=O)c3ccc(F)cc3)C(C)C2)cc1 (stereo not drawn)	-2	-5
CCOc1ccc(-c2ccnc(N3CCN(S(=O)(=O)c4c(C)cc(OC)c(C)c4C)CC3)n2)cc1	12	3
COc1cccc(NC(=O)NCC2CCCN(C3CCOCC3)C2)c1 (stereo not drawn)	3	1
CCCCS(=O)(=O)N1CCCN(c2nc(Cc3ccc(C)cc3)nc3onc(-c4cccnc4)c23)CC1	20	7
N#Cc1ccc(-c2ccc3c(n2)C(=O)N(CC(=O)N[C@H](CO)c2ccccc2)C3)cc1	-1	-4

Next part.
Structure	NPYLR7 agonist	NPYLR7 agonist max-min
CC(C)CCNC(=O)c1cn(C)cc2c(=O)n(-c3ccccc3)nc1-2	11	7
COc1ccc2sc(N(Cc3cccnc3)C(=O)C3CCCCC3)nc2c1	-4	2
CC(Cn1cnc2ccccc2c1=O)NCc1ccc2nsnc2c1 (stereo not drawn)	11	1
CCOc1ccc(C(C2Sc3nc(C)nn3C2=O)N2CCN(c3ccccc3)CC2)cc1 (stereo not drawn)	3	3
Cc1nn(CC(=O)N(C)CC(=O)Nc2ccc(Cl)cc2)c(C)c1[N+](=O)[O-]	-1	7
CSCCC(C(=O)O)N1C(=O)/C(=C/c2ccc(C)cc2)SC1=S (stereo not drawn)	-5	-12
CCOC(=O)Nc1ccc2c(c1)CCCN2S(=O)(=O)c1ccccc1	-1	-2
CC(=O)c1ccc(OCc2cc(C(=O)N(C)Cc3ccon3)no2)cc1	9	3

Additional entries follow:
Structure	NPYLR7 agonist	NPYLR7 agonist max-min
CCOC(=O)CNc1c(-c2ccc(Cl)c(Cl)c2)nc2ccc(Br)cn12	25	31
CCN(CC)CCCNC(=O)c1c(O)nc2sccn2c1=O	-1	7
CCCn1c(SCc2cc(F)cc(F)c2)nc2cc(S(=O)(=O)N3CCOCC3)ccc21	4	1
CC(C)NC(=S)NNc1c(Cl)cc(Cl)cc1Cl	7	7
COc1cccc2c1N(C(=O)c1nn(C)c3ccccc3c1=O)CCC2	1	-1
Cc1ccc(NC(N)=Nc2nc(-c3ccccc3)cc(=O)[nH]2)c(C)c1	0	4
Cc1cc(Nc2ncnc3c2nnn3C)ccc1Br	10	4
COCCN1C(=O)CON=C1c1ncccc1C	3	-1

Remaining list, next part
Structure	NPYLR7 agonist	NPYLR7 agonist max-min
O=C1CN(C(=S)Nc2cc(F)cc(F)c2)CC2c3cccc(F)c3CCN12 (stereo not drawn)	0	-6
CC(CCO)CNC(=O)NC1CC1c1ccccc1Br (stereo not drawn)	16	14
O=C(C1CCc2ccccc2O1)N(CCO)Cc1cccs1 (stereo not drawn)	-4	-6
CC(=O)N(c1ccc(C)c(C)c1)c1nc(/C=C2\SC(=S)NC2=O)cs1	14	14
CCOC(=O)Cn1c(=O)c2c(nc3n(-c4ccccc4)c(C)cn23)n(C)c1=O	15	4
CCC(C)NC(=O)c1c(N)n(/N=C\c2ccc(O)c(O)c2)c2nc3ccccc3nc12 (stereo not drawn)	9	-1
CCCCOc1cc(C(=O)NCCN(CC)CC)c2ccccc2n1	-1&-6&-1	-1&-8&-4
Nc1ccc(S(=O)(=O)c2ccccc2N)cc1	3	-1

The results go on:
Structure	NPYLR7 agonist	NPYLR7 agonist max-min
CCOC(=O)C1(C/C=C/c2ccccc2)CCCN(C(=O)CN2CCCC2=O)C1 (stereo not drawn)	3	2
CC(=C(C#N)P(=O)(c1ccccc1)c1ccccc1)N1CCOCC1	-4	-7
C=CCn1c(SCC(=O)c2cccc(Cl)c2)nnc1-c1ccoc1C	-7	16
c1ccc2oc(C3CCCN(Cc4cn[nH]c4-c4ccc5c(c4)OCO5)C3)nc2c1 (stereo not drawn)	22	0
CCN1CCN(c2c(CN(CCCOC)C(=O)c3ccccc3Cl)c(C)nn2-c2ccccc2)CC1	0	1
Cc1cc(Cl)ccc1N1CCN(C(=O)c2ccc([N+](=O)[O-])cc2)C(C)C1=O (stereo not drawn)	1	6
N#Cc1cccc(NC(=O)COC(=O)CNC(=O)c2cccc(F)c2)c1	-6	-11
COc1cccc(C=NNc2nc3ccccc3[nH]2)c1OC	2	-3

Further records follow.
Structure	NPYLR7 agonist	NPYLR7 agonist max-min
CC1CCN(C(=O)CSCc2csc(-c3ncccn3)n2)CC1	2	0
CCOC(=O)[C@H]1CN(C(=O)c2cc3ccccc3oc2=O)[C@]2(C)C(=O)N(CC3CC3)c3ccccc3[C@H]12	-7	3
Cc1cc(C(=O)N2CCOC(COCc3c(Cl)cccc3Cl)C2)cc(Cl)n1 (stereo not drawn)	8	3
O=C(O)COCCN1CCN([C@H](c2ccccc2)c2ccc(Cl)cc2)CC1	-1	-6
OCc1ccccc1-c1cccc2cnccc12	12	0
O=C(CN1CCCCCCC1)Nc1ncc(Cl)cc1Cl	6	5
CNc1ncc(CN(C)C(=O)C(C)n2ccnc2C(C)C)cn1 (stereo not drawn)	20	13
CCOC(=O)c1c(N)c(C(=O)c2ccc(C)c(C)c2)n2ccccc12	-2	-5

Next part.
Structure	NPYLR7 agonist	NPYLR7 agonist max-min
CCOC(=O)c1nn(-c2ccc(C)cc2)c(=O)cc1OCC(=O)Nc1ccc(OCC)cc1	12	10
CCn1c(=O)[nH]c(=O)c2cc(C(=O)N3CCN(C(=O)C(C)C)CC3)cnc21	3	1
NC(=O)C1CCN(C(=O)CSc2nc3cc(Cl)ccc3o2)CC1	20	13
CCOC(=O)c1c(NC(=O)CCCl)sc(C)c1-c1ccccc1	-1	-6
CC(CN(C)Cc1ccc2cccc(O)c2n1)N1CCOCC1 (stereo not drawn)	6	-3
CC1OC2OC(=O)C3(C)CC4=C(CO)C5=C(CC(=O)C4(C)C(C1=O)C23)C(C)(C)OC(=O)C5 (stereo not drawn)	-8	-13
Cc1ccc(-n2nnc(C(N)=O)c2C)cc1	5	20
Cc1ccc(Nc2ncnc3c2nnn3C)c(C)c1	10	2

Additional structures:
Structure	NPYLR7 agonist	NPYLR7 agonist max-min
CC(C)(C)c1ccc(NC(=O)C2CC=CCC2C(=O)N2CCN(c3ccccn3)CC2)cc1 (stereo not drawn)	-8	-12
CCCn1nnnc1COC(=O)C1COc2ccc(Cl)cc2C1 (stereo not drawn)	2	5
CC(CC(=O)N1CCCC(c2n[nH]c(=S)n2C)C1)C1CCCCC1 (stereo not drawn)	0	-1
O=C(c1cccc(OC(F)F)c1)N1CCOC(COc2ccc3c(c2)CCCC3)C1 (stereo not drawn)	3	0
CCOC(=O)C1CCCN(C(=O)c2ccc(CSc3nc(Cl)cc(N4CCN(c5cccc(Cl)c5)CC4)n3)cc2)C1 (stereo not drawn)	-1	1
O=C(NNC(=O)c1cc(-c2ccccc2)nc2ccccc12)Nc1ccc([N+](=O)[O-])cc1	-2	-8
COc1ccc(NC(=O)CCC2CCN(C(=O)C3CC34CCCC4)CC2)c(OC)c1 (stereo not drawn)	8	5
CCCNC(=O)CCCn1nc(CC)n2c(cc3occc32)c1=O	7	5

Next compounds.
Structure	NPYLR7 agonist	NPYLR7 agonist max-min
CN1C[C@H]2[C@@H](c3cccc4ccccc34)N[C@](CO)(c3ccccc3)[C@H]2C1	7	6
CC(C)c1n[nH]c(=S)n1-c1ccccc1	-9	-9
COCCN(C)CCNC(=O)c1ccc2nc(C)c(C)nc2c1	4	2
CC(C)Cc1cc(C(=O)N2CC[C@H](CO)[C@H](O)C2)on1	-1	-1
COC(=O)c1ccc2c(c1)CC(CNC(=O)c1cccc(OC)c1)O2 (stereo not drawn)	4	3
NC(=O)C(SC1=Nc2ccccc2CS1)c1ccccc1 (stereo not drawn)	-14	-16
CCC(C)C(NC(=O)c1cc(S(=O)(=O)N2CCCCC2)ccc1C)C(=O)OC (stereo not drawn)	1	7
CC(=O)Nc1ccc(NC(=O)CC2NCCNC2=O)cc1 (stereo not drawn)	2	8

New compounds follow.
Structure	NPYLR7 agonist	NPYLR7 agonist max-min
CC(C)CN1CCOC(CNC(=O)COc2cccc3ccccc23)C1 (stereo not drawn)	4	1
COc1cccc(CC2(CO)CCCN(S(=O)(=O)N(C)C)C2)c1 (stereo not drawn)	12	10
COc1ccc(-c2[nH]c3ccccc3c2SCCN)cc1	-9	-12
CN1C(=O)CC[C@H]1c1cccnc1	-3&6&-4	-8&-12&-7
O=C(O)CC1CSc2nccc(=O)n21 (stereo not drawn)	-3	-6
COCCNC(=O)c1cc(NC(=O)Nc2cccc(C)c2C)ccc1N1CCN(c2ccccc2OC)CC1	3	-9
O=C1NC(=Nc2ccccc2)S/C1=C/c1cccc(OC(=O)c2cc([N+](=O)[O-])cc([N+](=O)[O-])c2)c1	-10	-20
O=C(NCCC(=O)N1CCCN(c2ccc(C(F)(F)F)cn2)CC1)NC1CCCCC1	2	2

(listing goes on)
Structure	NPYLR7 agonist	NPYLR7 agonist max-min
O=P(O)(O)C1(Nc2ccc3c(c2)OCCO3)CCCCC1	-2	-3
CC(C(=O)NC1CCS(=O)(=O)C1)N1CCN(c2ccccc2Cl)CC1 (stereo not drawn)	1	2
COCCn1cc(C(=O)N2CCCc3ccccc32)c2nn(-c3ccccc3)c(=O)c-2c1	4	3
CCCCCC(=O)Nc1ccc(N2CCCC2)c(C(=O)NC(C)c2ccccc2)c1 (stereo not drawn)	7	9
CC(NC(=O)c1cn[nH]c1-c1ccc2c(c1)OCCO2)c1ccccc1F (stereo not drawn)	5	3
CCS(=O)(=O)c1ccc(Cl)cc1C(=O)Nc1cc(C)nn1C	1&0	0
O=C(CCC(=O)NC1CCCC1)NCc1ccc2c(c1)OCCCO2	3	24
Cc1nc2ccccc2nc1N1CCN(S(=O)(=O)c2cc(Cl)c(Cl)cc2Cl)CC1	6	5

Next section
Structure	NPYLR7 agonist	NPYLR7 agonist max-min
COc1ccccc1CC(=O)N1CCC(n2c(Cc3ccccc3)nc3ccccc32)CC1	-3	2
Nc1nonc1OCc1ccc2c(c1)OCO2	4	2
COc1ccc(-c2nc3sc(CCNS(=O)(=O)c4cc(C)ccc4C)c(C)n3n2)cc1	10	6
Cc1ccc(OC(C)C(=O)NCCOc2ccc3nnc(-c4ccccc4)n3n2)cc1C (stereo not drawn)	-7	-7
COc1cc(S(=O)(=O)N2CCOCC2)ccc1NC(=O)Nc1ccccc1C#N	-6	-9
CC(CN1CCCC1=O)NC(=O)c1cnc(-c2ccsc2)s1 (stereo not drawn)	-1	33
NC(=O)Nc1ccc(Cl)c(NS(=O)(=O)c2ccccc2Br)c1	6	4
Cc1nn2cc(CCNC(=O)Cc3cnc4c(C)cccn34)nc2s1	0	0
COc1cc(OC)cc(C(=O)N2CCN(c3nc4nccc(-c5ccc6c(c5)OCO6)n4n3)CC2)c1	-4	-6
O=c1[nH]c(CSCc2ccccc2)nc2c1C1(CCCC1)Cc1ccccc1-2	-1	1
Nc1nc2cc(-c3ccccc3)cc(Cl)c2o1	7	5

Gathered by group: the entries above with an aryl methoxy group
Structure	NPYLR7 agonist	NPYLR7 agonist max-min
COc1cc(/C=C2\C(=O)N(C(c3ccccc3)c3ccccc3)C(=S)N2C)cc2c1OCO2	24	23
COc1ccc(C2c3ccsc3CCN2CC(=O)N2CCN(C(=O)c3ccc(F)cc3)C(C)C2)cc1 (stereo not drawn)	-2	-5
CCOc1ccc(-c2ccnc(N3CCN(S(=O)(=O)c4c(C)cc(OC)c(C)c4C)CC3)n2)cc1	12	3
COc1cccc(NC(=O)NCC2CCCN(C3CCOCC3)C2)c1 (stereo not drawn)	3	1
COc1ccc2sc(N(Cc3cccnc3)C(=O)C3CCCCC3)nc2c1	-4	2
COc1cccc2c1N(C(=O)c1nn(C)c3ccccc3c1=O)CCC2	1	-1
COc1cccc(C=NNc2nc3ccccc3[nH]2)c1OC	2	-3
COc1ccc(NC(=O)CCC2CCN(C(=O)C3CC34CCCC4)CC2)c(OC)c1 (stereo not drawn)	8	5
COC(=O)c1ccc2c(c1)CC(CNC(=O)c1cccc(OC)c1)O2 (stereo not drawn)	4	3
COc1cccc(CC2(CO)CCCN(S(=O)(=O)N(C)C)C2)c1 (stereo not drawn)	12	10
COc1ccc(-c2[nH]c3ccccc3c2SCCN)cc1	-9	-12
COCCNC(=O)c1cc(NC(=O)Nc2cccc(C)c2C)ccc1N1CCN(c2ccccc2OC)CC1	3	-9
COc1ccccc1CC(=O)N1CCC(n2c(Cc3ccccc3)nc3ccccc32)CC1	-3	2
COc1ccc(-c2nc3sc(CCNS(=O)(=O)c4cc(C)ccc4C)c(C)n3n2)cc1	10	6
COc1cc(S(=O)(=O)N2CCOCC2)ccc1NC(=O)Nc1ccccc1C#N	-6	-9
COc1cc(OC)cc(C(=O)N2CCN(c3nc4nccc(-c5ccc6c(c5)OCO6)n4n3)CC2)c1	-4	-6

Some of the compounds tested, so the mix of outcomes need not match the whole.
